VACV mCherry inh = inhibitors of vaccinia virus infection (mCherry reporter signal). Vaccinia virus mCherry reporter infection, fluorescence; about a quarter of the inactives have no number. Potency, µM (doses to about 36.5 µM), for the others: at the highest dose activity change, negative = inhibition, most hits filed as inhibitors. hit rate 0.63% among 310,000; active = well fitted inhibition curve with a large enough effect; inconclusive = small, poorly fitted or top-dose-only effect; inactive = no such curve, though single readings can be large or run the other way; tested in A549 cells; also: nearly all actives have a fitted effect of over 35% in size; inactives centre near -10
Vaccinia Venus = inhibitors of vaccinia virus (Venus reporter) | Vaccinia virus Venus reporter expression, fluorescence | Potency, µM (titrated, usually from 36.5 µM), without a hit: at the top dose activity change, negative = inhibition, actives largely listed as inhibitors | hit rate 0.46% among 330,000 | AID 720580; active means well fitted inhibition curve with a large enough effect; inconclusive means small, poorly fitted or top-dose-only effect; inactive means no such curve, though single readings can be large or run the other way; tested in A549 cells; also: nearly all actives have a fitted effect of over 30% in size; inactives centre near -10
* marks the source's active call; other numbers are inactive results; i = inactive; ? = inconclusive; . = not tested or not shown; & = joins results of further samples; [ ] = remark or other dose. % is scaled to controls: 0 for no effect and ±100 for the full control effect; potency is read from the fitted curve at half-maximal effect.

Compound	Vaccinia Venus	VACV mCherry inh
O=C(COc1ccc2c3c(c(=O)oc2c1)CCC3)NCCN1CCOCC1	-8%	-17%
Cc1ccc([C@H]2C(C#N)=C(N)Oc3cc(C)oc(=O)c32)o1	4%	4%
Cc1ccc2cc(N)ccc2n1	-1%	0%
COc1ccc(-c2sc3cc(OC)c(OC)cc3c2C#CC2(O)CCCCC2)cc1	-16%	?
O=C(Nc1ccccc1C(=O)NCCCn1ccnc1)c1ccc(Cl)cc1Cl	-11%	.
C/C(=N\NC(=O)NC1CCCCC1)c1ccco1	-8%	-2%
O=C(CN1CCCCC1)N1c2ccccc2Sc2ccc(C(F)(F)F)cc21	-20%	-2%
COc1ccccc1N1CCN(S(=O)(=O)c2c(C)sc3ncn(CC(=O)Nc4cccc(Cl)c4)c(=O)c23)CC1	-10%	-7%
COc1ccccc1/C=C/c1nc(C#N)c(N2CCN(c3ccccc3)CC2)o1	1%	-10%
CCC(C)NC(=O)c1ccc2c(c1)N(Cc1ccccc1)C(=O)CS2 (stereo not given)	-12%	-21%
O=C(CCNC(=O)Cn1ccc2ccccc2c1=O)NCCCN1CCN(c2ccccc2F)CC1	-19%	-26%
CCOC(=O)C1(C)CCN1C(=O)c1ccc(F)c(Cl)c1 (stereo not given)	5%	46%[activator]
Cc1ccnc2nc(C(=O)N3CCN(S(=O)(=O)c4ccccc4)CC3)nn12	-1%	-4%
C=CCNC(=O)c1ccccc1NC(=O)c1ccc(Cl)c(S(=O)(=O)Nc2ccccc2)c1	-11%	-8%
O=[N+]([O-])c1cccc(SSc2cccc([N+](=O)[O-])c2)c1	27%	?
O=C(CCCC(=O)OCC1CCCO1)OCC1CCCO1 (stereo not given)	10%	.
O=C(N/N=C/c1c[nH]c2ccccc12)C1CC1c1ccccc1 (stereo not given)	-19%	-24%
O=C(C1CCC1)N1CCc2cc(S(=O)(=O)Nc3ccc4c(c3)OCO4)ccc21	?	?
Cc1cccc(CSc2cn(CC(=O)N3CCOCC3)c3ccccc23)c1	-6%&-6%	-7%&-3%
O=C(Cn1cc(S(=O)(=O)Cc2ccccc2F)c2ccccc21)NCc1ccccc1	-13%	-13%
CC1CCC2C(=O)N(c3ccc(Cc4ccncc4)cc3)C(=O)C2C1 (stereo not given)	-7%	-20%
Cc1c(C(=O)OCC(=O)NCc2ccccc2)oc2ccccc12	-11%	i
COc1ccc(OC)c(CCNC(=O)CS(=O)(=O)Cc2nc(-c3cccc(Cl)c3)oc2C)c1	-4%	-7%
COc1ccc(CCNC(=O)COC(=O)C2CC2C)cc1 (stereo not given)	-1%	-13%
Cc1ccc(-c2c[n+](Cc3cccc(Cl)c3)c3n2CCC3)cc1	-23%	-24%
C/C(CC(=O)Nc1cccc(C(F)(F)F)c1)=N\NC(=O)C(=O)NCC(C)C	-10%	-12%
COc1ccc(OCC(=O)OCC(=O)NCc2ccco2)cc1	3%	.
Cc1ccn(CCNC(=O)C2CCC(=O)N(Cc3ccc(Cl)cc3)C2)n1 (stereo not given)	-8%	-6%
COCc1c(C(=O)N2CCN(Cc3c(F)cccc3Cl)CC2)oc2ccccc12	-1%	-10%
Cc1cc(N2CCN(c3nc(-c4ccc([N+](=O)[O-])cc4)cs3)CC2)c2ccccc2n1	-18%	-24%
CC(OC(=O)C1=COCCO1)C(=O)Nc1ccccc1C#N (stereo not given)	-2%	i
Cc1ccc(S(=O)(=O)N2CCOCC2)cc1C(=O)Nc1ccc2c(c1)CCC2	-13%	i
O=C(c1ccccc1F)c1cn(CC(=O)N2CCCC2)c2ccccc12	?	-7%
Cc1cc(C)c2c(c1)-c1c(ssc1=S)C(C)(C)N2C(=O)CSc1nncn1C	?	.
O=C(CSc1ccc(Cl)cc1)Nc1ccc(NC(=O)c2ccco2)cc1	0%	i
CN(C)c1ccc(N2C(=O)CC(c3ccccc3)CC2=O)cc1	-14%	i
Cc1cc(C)c(S(=O)(=O)N2CCOC2CNC(=O)C(=O)NCCN2CCOCC2)c(C)c1 (stereo not given)	-4%	i
O=C(NC(=S)NCC1CCCO1)c1ccc(Br)o1 (stereo not given)	-6%	i
Cc1ccc(NC(=O)C(=O)NCCN2CCN(Cc3ccc([N+](=O)[O-])cc3)CC2)cc1	-1%	-9%
Cc1nn(CCCC(=O)NCCc2ccc(Cl)cc2)c(=O)c2c1sc1ccccc12	-7%	-8%
COC(=O)Cc1c(C)c2ccc(OCC(=O)N3CCOCC3)cc2oc1=O	-17%	.
CCOC(=O)C(CC)n1cnc2c(nnn2-c2ccccc2)c1=O (stereo not given)	9%	31%[activator]
O=C(C1COc2ccccc2O1)N1CCN(c2ccc([N+](=O)[O-])cc2)CC1 (stereo not given)	-19%	-24%
CSCCC(NS(=O)(=O)c1ccc(C)cc1C)C(=O)Nc1cccnc1 (stereo not given)	-15%	i
CCOc1ccc(NC(=O)Cn2cc(C(=O)c3ccc(C)c(C)c3)c(=O)c3cc(OC)c(OC)cc32)cc1	-3%	0%
O=C(CN1CCOCC1)Nc1ncc(Br)cc1Br	?	.
COc1ccc(-c2coc3c(C(=O)Nc4cccc(C(C)=O)c4)cccc23)c(C)c1	-16%	-3%
Cc1cccc(NC(=S)N(CCCN2CCOCC2)Cc2ccccn2)c1	-5%	-7%
COc1ccc(C(=O)n2nc(-c3ccc(C)cc3)nc2N)cc1OC	-11%	-21%
O=C(c1ccc(F)cc1)N1CCCC(c2nc(-c3cccs3)no2)C1 (stereo not given)	-18%	i
CCN(CC)CCN1C(=O)C(=O)/C(=C(/O)c2ccc(S(=O)(=O)N3CCOCC3)cc2)C1c1ccc(C(C)C)cc1 (stereo not given)	0%	-3%
CCOc1ncccc1C(=O)OCC(=O)Nc1cccc(S(=O)(=O)N2CCCCCC2)c1	-24%	-2%
CCCC(C(=O)NCC1CCCO1)N(C(=O)CNS(=O)(=O)c1ccccc1)c1ccc(F)cc1 (stereo not given)	-12%	-11%
O=C(OCc1ccccc1)N(CCCCN(CCCNCc1ccccc1)C(=O)OCc1ccccc1)CCCNCc1ccccc1	?	?
O=C(CSc1nc(N2CCOCC2)nc(N2CCOCC2)n1)Nc1cccc(C(F)(F)F)c1	-6%	-3%
CCOC(=O)C1CCN(S(=O)(=O)c2ccc3c(c2)CC(C)N3C(=O)C2CC2)CC1 (stereo not given)	-22%	-8%
COc1cccc(CNC(=O)CCNS(=O)(=O)c2ccc3[nH]c(=O)oc3c2)c1	-7%	-16%
C=CCN1C(=O)C2(NNc3ccccc3O2)c2ccccc21 (stereo not given)	-3%	.
CN(CC(=O)N1CCN(c2ccccc2)CC1)S(=O)(=O)c1cccs1	-19%	i
Cc1noc(NS(=O)(=O)c2ccc(NC(=O)C(C)C)cc2)c1C	-7%	-8%

Some of these compounds in order of length of the SMILES, highest first:
Compound	Vaccinia Venus	VACV mCherry inh
CCN(CC)CCN1C(=O)C(=O)/C(=C(/O)c2ccc(S(=O)(=O)N3CCOCC3)cc2)C1c1ccc(C(C)C)cc1 (stereo not given)	0%	-3%
CCOc1ncccc1C(=O)OCC(=O)Nc1cccc(S(=O)(=O)N2CCCCCC2)c1	-24%	-2%
COc1cccc(CNC(=O)CCNS(=O)(=O)c2ccc3[nH]c(=O)oc3c2)c1	-7%	-16%

The list continues.
Compound	Vaccinia Venus	VACV mCherry inh
Cc1ccc(C)c(S(=O)(=O)c2nnn3c2nc(NC2CCCC2)c2sccc23)c1	?	?
CC(O)(c1cccc(F)c1)c1nc(-c2ccccc2)cs1 (stereo not given)	-7%	i
CCOC(=O)c1ccc(NC(=S)Nc2ccc(C)cc2)cc1	0%	4%
COc1cc(-c2nccc3cc4c(cc23)OCO4)cc(OC)c1OC	-24%	-7%
NC1=NC[C@H](Cc2ccc(O)cc2)N1CCC12CC3CC(CC(C3)C1)C2	-16%	-21%
CC(=O)N1NC(=Nc2ccccc2)SC1(C)C	?	-8%
Cc1nc(NC(=O)COC(=O)c2cccs2)c(Cl)cc1Cl	-5%	i
N#C/C(=C\c1ccc(C#N)cc1)C(=O)c1ccccc1	0%	i
CC(O)C(NS(=O)(=O)c1ccc(Cl)cc1)C(=O)OCc1cc([N+](=O)[O-])cc2c1OCOC2 (stereo not given)	-17%	-18%
COc1ccc(S(=O)(=O)N(C)CC(=O)NCCN2CCOCC2)cc1Cl	1%	-13%
O=C(N/N=C1\CCSC1)c1cc(Cl)ccc1O	4%	2%
C=CCN1C(=O)/C(=C\c2cccc(OC(=O)c3ccco3)c2)SC1=S	-2%	i
CCCS(=O)(=O)N1CC(=O)N(c2cc(C)cc(C)c2)C(C)(C(=O)NC2CCCCCC2)C1 (stereo not given)	-8%	-13%
CC(NNC(=S)N1CCCCCC1)c1ccc2ccccc2n1 (stereo not given)	-25%	5.6µM*
CC(C)c1ccc(NC(=O)CSc2nc(=O)n(CCN3CCOCC3)c3c2CCC3)cc1	-5%	-18%
COC(=O)[C@@]12C[C@@H](CC(=O)NCC3CCCCC3)C(=O)N(CCc3ccc(OC)c(OC)c3)C1=CCC(C)(C)C2	?	?
Cc1ncc(CSc2nc3ccccc3[nH]2)c(N)n1	-11%	-10%
O=C(COc1ccc2oc3c(c2c1)CCCC3)Nc1ccc(Br)cc1	-12%	-14%
Cc1ccc(NC(=O)C2CCCN(c3nc4ccccc4s3)C2)c(C)c1 (stereo not given)	-15%	-12%
COc1ccccc1/C=C/c1nc(C#N)c(NCCc2ccccc2)o1	1%	-1%
Cc1ccc(NC(=O)C(Cc2c[nH]c3ccccc23)NC(=O)OCC(C)C)cc1 (stereo not given)	-6%	-11%
COc1cccc(-c2ncc3ccccc3c2CO)c1	-11%	i
Cc1ccc(S(=O)(=O)N2CCC(=O)CC2)cc1	-6%	-19%
O=C(Nc1ccccc1C(=O)OCc1cc(=O)n2nc(C3CC3)sc2n1)c1cccc(Cl)c1	-4%	-12%
CCCn1nc(NC(=O)c2cccs2)c2cc3cc(C)ccc3nc21	-24%[7.34 µM]	-21%[7.34 µM]
CCOC(=O)C1=C(N)OC2=C(C(=O)CCC2)C12C(=O)N(C)c1ccccc12 (stereo not given)	-23%	-11%
Cc1ccc(-c2nnc(CSc3nnc(COc4ccccc4)n3-c3ccccc3)o2)cc1	-20%	-11%
Cc1ccc(S(=O)(=O)N2[C@H](CC(=O)c3ccccc3)OC[C@@H]2C(C)C)cc1	?	?
COc1ccccc1-c1cc(C(=O)Nc2cc(OC)c(OC)c(OC)c2)no1	-26%	-27%
CCCNC(=O)C1(C)CCN(Cc2ccc(C(=O)OCC)cc2)C1 (stereo not given)	-5%	3%
COc1ccccc1CNc1nc(-c2ccco2)nn1C(=O)c1cc(OC)c(OC)c(OC)c1	3%	-1%
O=C(NCCN1C(=O)S/C(=C/c2cccnc2)C1=O)c1ccc(S(=O)(=O)N2CCCC2)cc1	6%	-15%
Cc1nn(-c2ccc(Cl)cc2)c(N)c1C(O)(CSc1nccn1C)C(F)(F)F (stereo not given)	-11%	-12%
CC(=O)N1CCC(=NNC(=O)CSc2cc(C)c(Br)cc2C)CC1	-18%	-23%
Cc1nn(C)c2c1c(-c1ccccc1)cc(=O)n2C(C)C(=O)NCCc1ccc(Cl)cc1 (stereo not given)	5%	3%
CC(C)Sc1nc2ccccc2n1CC(=O)NCc1ccc2c(c1)OCO2	-1%	-10%

Compound profiles, as listed above. Values in the order: Vaccinia Venus, VACV mCherry inh
Record of O=C(Nc1ccccc1C(=O)OCc1cc(=O)n2nc(C3CC3)sc2n1)c1cccc(Cl)c1 → -4%, -12%
Record of O=C(COc1ccc2c3c(c(=O)oc2c1)CCC3)NCCN1CCOCC1 → -8%, -17%
Record of Cc1ccc(S(=O)(=O)N2CCOCC2)cc1C(=O)Nc1ccc2c(c1)CCC2 → -13%, i
Record of COc1ccc(-c2coc3c(C(=O)Nc4cccc(C(C)=O)c4)cccc23)c(C)c1 → -16%, -3%
Record of O=[N+]([O-])c1cccc(SSc2cccc([N+](=O)[O-])c2)c1 → 27%, ?

New compounds follow:
Compound	Vaccinia Venus	VACV mCherry inh
CC(=O)Nc1ccc(NC(=O)C(NC(=O)C2CCC(C)CC2)C(C)C)cc1 (stereo not given)	-5%	-6%
O=C(N/N=C/c1ccccc1C(=O)O)c1ccc(COc2cccc3cccnc23)cc1	0%	-2%
COc1cc(NC(=O)CSc2nc3nc(C)c(Cc4ccc(C)cc4)c(C)n3n2)cc(OC)c1	-4%	-18%
COc1ccc(-c2cccc(NS(=O)(=O)c3ccc(C)s3)c2)nn1	-8%	-17%
Cc1cccc2cc(CN(CCN3CCCC3)C(=O)NC3CCCCC3)c(=O)[nH]c12	-16%	.
Cc1ccc(S(=O)(=O)N(C)c2ccc(C(=O)Nc3ccccn3)cc2)cc1	-10%	-4%
CCOCCCn1c(=N)c(C(=O)NCc2ccccc2)cc2c(=O)n3ccccc3nc21	-4%	0%
CCCCn1c(N)c(N(CC)C(=O)Cc2ccc(S(=O)(=O)N3CCOCC3)s2)c(=O)[nH]c1=O	-16%	i
Cc1cc(F)ccc1S(=O)(=O)N1CCCOC1CNC(=O)C(=O)NC1CC1 (stereo not given)	-11%	-10%
